Compound activity deposited in PubChem BioAssay by ICCB-Longwood Screening Facility, Harvard Medical School.
RVFV N-RNA inh = blocks Rift Valley Fever Virus nucleoprotein binding to RNA | % bound, % (concentration not given with the values) | RVFV N-RNA binding, fluorescence polarization; active compounds read low | AID 651828 | actives 0.1% (n = 20,000) | P21700;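 active = between 0 and 58% in either replicate with normal brightness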;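 note: 100 nL library stock added to about 12 µL; 100% = protein and probe without compound and 0% = probe alone; numbers are from one replicate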
Target sequence (P21700 whole entry, looked up): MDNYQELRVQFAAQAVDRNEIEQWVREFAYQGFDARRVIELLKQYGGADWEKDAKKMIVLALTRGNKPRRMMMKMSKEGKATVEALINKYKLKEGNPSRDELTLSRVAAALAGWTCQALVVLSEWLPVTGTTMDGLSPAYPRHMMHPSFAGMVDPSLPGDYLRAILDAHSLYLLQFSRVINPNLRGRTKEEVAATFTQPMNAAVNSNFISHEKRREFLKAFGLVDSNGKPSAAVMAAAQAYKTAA
* hit, by the source's call; & = joins results of further samples. A portion of the library; rates above refer to the full screens.

`Cc1cc(F)ccc1S(=O)(=O)N1CCCCC1CCNC(=O)NC1CCCCC1` (centres undefined) gave RVFV N-RNA inh 101.
CC(C)N1CCN(Cc2ccc3ccccc3c2)CC1 was read as RVFV N-RNA inh 94.
Screening N/C(=N\[N+](=O)[O-])N/N=C\c1ccc(-c2cccc([N+](=O)[O-])c2)o1 returned RVFV N-RNA inh 108.
`Nc1ccc(C(=O)c2ccccc2C(=O)O)cc1Cl` gave RVFV N-RNA inh 95.
Screening Cc1cc(NC(=O)CC(C)(C)CC(=O)O)n(C)n1 returned RVFV N-RNA inh 101.
Screening Cc1cc(C(=O)N/N=C/C(C)(C)C)nn1-c1ccc(C(C)C)cc1 returned RVFV N-RNA inh 89.
Screening O=C(Nc1ccc2c(c1)C(=O)N(C1CCCCC1)C2=O)c1ccc(Br)o1 returned RVFV N-RNA inh 95.
Screening COCC(=O)Nc1cccc(-c2ccc(S(C)(=O)=O)nn2)c1 returned RVFV N-RNA inh 96.
`C#CC(CC)(CC)NC(=O)Nc1ccccc1` gave RVFV N-RNA inh 109.
CC1=C(CCN2CCN(Cc3ccccc3)CC2)C(C)(C)CCC1 was read as RVFV N-RNA inh 103.
Screening N#Cc1sc2nc3c(cc2c1N)CCC3 returned RVFV N-RNA inh 98.
Screening CCN1C(=O)CC(NC2CCN(c3ccc(C(F)(F)F)cn3)CC2)C1=O (centres undefined) returned RVFV N-RNA inh 99.
`N#C/C(=C\c1cccn1-c1ccc(Cl)cc1)C(=O)O` gave RVFV N-RNA inh 98.
CC(C)(C)c1cc(C(C)(C)C)n(-c2ccc(Br)cc2)n1 was read as RVFV N-RNA inh 91.
Screening CC1(C)CC(=O)C2=C(C1)Oc1ccc(Br)cc1C2 returned RVFV N-RNA inh 105.
For C[C@]12CCC3C(CC[C@H]4C[C@H](O)CC[C@]34C)C1CC[C@@H]2C(=O)CO (some centres undefined) the results were RVFV N-RNA inh 94.
Screening CN=C(N)NCCC[C@H](N)C(=O)O returned RVFV N-RNA inh 99&103&97.
For Cc1ccc2c(c1)sc(=NC(=O)C1=COCCO1)n2C the results were RVFV N-RNA inh 102.
`CSc1nsc(SCC(=O)N(c2ccccc2)c2ccccc2)n1` gave RVFV N-RNA inh 95.
`C=CCN1C(=O)CS/C1=N/c1nccs1` gave RVFV N-RNA inh 98.
Cc1ccn2c(=O)c(NC(=O)COc3ccccc3)c(C)nc2c1 was read as RVFV N-RNA inh 95.
For Cn1c(N)c(S(=O)(=O)NC2CCCCC2)c(=O)n(C)c1=O the results were RVFV N-RNA inh 110.
For CCOC(=O)C1CCN(C(=O)c2ccccc2F)CC1 the results were RVFV N-RNA inh 91.
`O=C(NCCSc1c[nH]c2ccccc12)C1CC1` gave RVFV N-RNA inh 107.
For O=C1S/C(=C/c2ccco2)C(=S)N1c1ccccc1 the results were RVFV N-RNA inh 99.
`Cc1ccc(NC(=O)N(C)C)cc1` gave RVFV N-RNA inh 92.
For CCOC(=O)c1c(C)csc1NC=C(C#N)C#N the results were RVFV N-RNA inh 94.
`COc1ccc(/C=C/C(=O)N2CC(C)OC(C)C2)cc1OC` (centres undefined) gave RVFV N-RNA inh 90.
OCCN(Cc1ccccc1)Cc1ccccc1C(F)(F)F was read as RVFV N-RNA inh 107.
Screening COc1ccc(NC(=S)N(C)Cc2c(C)nn(C)c2C)c(OC)c1 returned RVFV N-RNA inh 93.
Screening COc1cc(C)c(NS(C)(=O)=O)cc1C(C)C returned RVFV N-RNA inh 89.
For COc1ccc(-n2nc3c(c2NC(C)=O)CSC3)cc1 the results were RVFV N-RNA inh 89.
`O=S(=O)(c1ccccc1)N1CCN(S(=O)(=O)c2ccc(Cl)cc2)CC1` gave RVFV N-RNA inh 102.
Screening Cc1onc(-c2ccccc2)c1N1C(=O)CCN(C(C)C)C1=O returned RVFV N-RNA inh 97.
`CCc1nnc(NC(=O)c2ccc(S(=O)(=O)N3CC(C)CC(C)C3)cc2)o1` (centres undefined) gave RVFV N-RNA inh 96.
`CCCC(=O)n1nc(NCc2ccccc2)nc1NCc1ccccc1` gave RVFV N-RNA inh 110.
For CNC(=O)N(Cc1cccnc1)Cc1cccc(Cl)c1Cl the results were RVFV N-RNA inh 98.
Screening NC(=S)N/N=C/CCn1c(=S)sc2ccccc21 returned RVFV N-RNA inh 99.
`CC(C)(C)n1nc2c(c1N)CSC2` gave RVFV N-RNA inh 93.
For CCCCN1C(=O)N(c2nnc(C(C)(C)C)s2)C(O)C1c1ccc(C)cc1 (centres undefined) the results were RVFV N-RNA inh 102.
`Cc1cccc(Cn2nc(C)c(NC(=O)c3ccncc3)c2C)c1` gave RVFV N-RNA inh 100.
CON(S(=O)(=O)c1ccccc1)S(=O)(=O)c1ccccc1 was read as RVFV N-RNA inh 100.
Screening COCc1nnc(NC(=O)c2ccc(S(=O)(=O)N(C)C3CCCCC3)cc2)o1 returned RVFV N-RNA inh 97.
`CSc1ccccc1C(=O)NCCN1CCOCC1` gave RVFV N-RNA inh 97.
For CS(=O)(=O)N(CC(=O)Nc1ccc(S(=O)(=O)N2CCCC2)cc1)c1ccc2c(c1)OCO2 the results were RVFV N-RNA inh 94.
Screening Cc1ccc(C(CN2CCOCC2)c2nc(-c3ccccc3)nn(CN3CCOCC3)c2=O)cc1 (centres undefined) returned RVFV N-RNA inh 92.
For Cc1cc(NC(=O)CSCc2ccco2)no1 the results were RVFV N-RNA inh 101.
`CN1c2ccccc2N(Cc2ccccc2)C(=O)C1(C)C` gave RVFV N-RNA inh 107.
For O=C(NCCO)c1c(Cl)cccc1Cl the results were RVFV N-RNA inh 110.
CCn1c(C(C)NC=O)nc2ccccc21 (centres undefined) was read as RVFV N-RNA inh 94.
For O=C1CCCN1c1ccc(S(=O)(=O)Nc2ccc(Cc3ccncc3)cc2)cc1 the results were RVFV N-RNA inh 96.
CN(C)C(=O)c1ccccc1-c1ccccc1 was read as RVFV N-RNA inh 91.
Screening O=S(=O)(NCc1ccc2c(c1)OCO2)c1ccc(N2CCOCC2)nc1 returned RVFV N-RNA inh 92.
O=c1[nH]c(=O)c2nc3ccccc3nc2[nH]1 was read as RVFV N-RNA inh 92.
Cn1sc(=O)c2ccccc21 was read as RVFV N-RNA inh 94.
For Cc1ccc(NC(=S)Nc2ccc3nc(-c4ccco4)c(-c4ccco4)nc3c2)cc1 the results were RVFV N-RNA inh 89.
For O=C(CSc1n[nH]c(=O)n1-c1cccnc1)c1cc(-c2ccccc2)no1 the results were RVFV N-RNA inh 92.
CCOc1ccccc1C(=O)NCc1n[nH]c(=O)c2ccccc12 was read as RVFV N-RNA inh 92.
C=CCSc1nc(N)c2c(C)c(C(=O)O)sc2n1 was read as RVFV N-RNA inh 89.
For CCOC(=O)C1=NN(C(C)=O)C2C(=O)N(Cc3ccccc3)C(=O)C12 (centres undefined) the results were RVFV N-RNA inh 92.
`NC(=O)c1ccccc1NC(=O)/C=C/c1ccccc1` gave RVFV N-RNA inh 97.
COC(=O)CCc1n[nH]c(=S)[nH]c1=O was read as RVFV N-RNA inh 103.
For Nc1nc(C2COc3ccccc3O2)ncc1S(=O)(=O)c1ccc(Cl)cc1 (centres undefined) the results were RVFV N-RNA inh 92.
COc1ccc(C(CCN)C(C)C)cc1 (centres undefined) was read as RVFV N-RNA inh 98.
For Cc1[nH][nH]c(=O)c1N=Nc1ccc(S(=O)(=O)N2CCCCC2)cc1 the results were RVFV N-RNA inh 94.
CCCn1c(O)c(C2=NC(=S)NC2=O)c2ccccc21 was read as RVFV N-RNA inh 114.
`Cc1ccc(CSc2nnc(-c3cnccn3)s2)cc1` gave RVFV N-RNA inh 98.
Screening O=c1oc2ccccc2c(O)c1Cc1ccccc1 returned RVFV N-RNA inh 93.
Screening COC(=O)c1c(N)n(C2CCCC2)c2nc3ccccc3nc12 returned RVFV N-RNA inh 100.
O=c1[nH][nH]c(=O)c2ncccc12 was read as RVFV N-RNA inh 98.
NC(=O)c1c(C(F)(F)F)cc(C(F)(F)F)cc1C(F)(F)F was read as RVFV N-RNA inh 97.
`O=c1[nH][nH]c2c1CCCC2` gave RVFV N-RNA inh 104.
For O=C(O)Cc1nonc1NCNc1nonc1CC(=O)O the results were RVFV N-RNA inh 95.
CCOC(c1ccccc1)c1nc2ccccc2n1CC (centres undefined) was read as RVFV N-RNA inh 99.
Screening NC1CCN(c2cccc(Cl)n2)CC1 returned RVFV N-RNA inh 98.
CSc1ccc(NC(=O)NCc2ccccc2)cc1 was read as RVFV N-RNA inh 92.
`O=C(NCCS(=O)(=O)NC1CCCCC1)c1ccccc1` gave RVFV N-RNA inh 86.
For COc1ccccc1C(=O)NCc1ccc2c(c1)cc(C)n2C the results were RVFV N-RNA inh 97.
For O=S(=O)(c1ccc(F)cc1)n1nc(C(F)(F)F)c2cnccc21 the results were RVFV N-RNA inh 97.
For O=C(CCCOc1ccccc1)Nc1ccccc1 the results were RVFV N-RNA inh 96.
Screening COc1ccc(CC(=O)Nc2cccc(-c3ccc(S(C)(=O)=O)nn3)c2)cc1 returned RVFV N-RNA inh 100.
For CCOCC(O)CN (centres undefined) the results were RVFV N-RNA inh 100.
CCN(C(=O)C12CCC(C)(C(=O)C1)C2(C)C)c1ccccc1 (centres undefined) was read as RVFV N-RNA inh 94.
`CCN(CC(=O)NC1CCCCCC1)S(=O)(=O)c1ccc(Cl)cc1` gave RVFV N-RNA inh 92.

Copied from above, 16 compounds:
CCCn1c(O)c(C2=NC(=S)NC2=O)c2ccccc21 was read as RVFV N-RNA inh 114.
`Cc1ccc(CSc2nnc(-c3cnccn3)s2)cc1` gave RVFV N-RNA inh 98.
Screening O=c1oc2ccccc2c(O)c1Cc1ccccc1 returned RVFV N-RNA inh 93.
Screening COC(=O)c1c(N)n(C2CCCC2)c2nc3ccccc3nc12 returned RVFV N-RNA inh 100.
O=c1[nH][nH]c(=O)c2ncccc12 was read as RVFV N-RNA inh 98.
NC(=O)c1c(C(F)(F)F)cc(C(F)(F)F)cc1C(F)(F)F was read as RVFV N-RNA inh 97.
`O=c1[nH][nH]c2c1CCCC2` gave RVFV N-RNA inh 104.
For O=C(O)Cc1nonc1NCNc1nonc1CC(=O)O the results were RVFV N-RNA inh 95.
CCOC(c1ccccc1)c1nc2ccccc2n1CC (centres undefined) was read as RVFV N-RNA inh 99.
Screening NC1CCN(c2cccc(Cl)n2)CC1 returned RVFV N-RNA inh 98.
CSc1ccc(NC(=O)NCc2ccccc2)cc1 was read as RVFV N-RNA inh 92.
`O=C(NCCS(=O)(=O)NC1CCCCC1)c1ccccc1` gave RVFV N-RNA inh 86.
For COc1ccccc1C(=O)NCc1ccc2c(c1)cc(C)n2C the results were RVFV N-RNA inh 97.
For O=S(=O)(c1ccc(F)cc1)n1nc(C(F)(F)F)c2cnccc21 the results were RVFV N-RNA inh 97.
For O=C(CCCOc1ccccc1)Nc1ccccc1 the results were RVFV N-RNA inh 96.
Screening COc1ccc(CC(=O)Nc2cccc(-c3ccc(S(C)(=O)=O)nn3)c2)cc1 returned RVFV N-RNA inh 100.

(list continues)
C=CCN(CC=C)Cc1ccc(C(=O)OC)o1 was read as RVFV N-RNA inh 106.
For O=C(NCCCn1ccnc1)C1(c2cccs2)CCOCC1 the results were RVFV N-RNA inh 89.
CCc1cc(C(N)=S)ccn1 was read as RVFV N-RNA inh 98.
CCCc1cc(=O)oc2cc(C)cc(OC(=O)c3ccco3)c12 was read as RVFV N-RNA inh 91.
`CCc1n[nH]c2c1/C(=N\O)CC(C)(C)C2` gave RVFV N-RNA inh 99.
`CCCSc1nc2c(c(=O)n1-c1ccccc1)SCC2` gave RVFV N-RNA inh 99.
`Cn1nccc1NS(=O)(=O)c1ccc(NC(=O)C(F)(F)F)cc1` gave RVFV N-RNA inh 90.
Screening CO[C@H]1C[C@@H]2CC[C@@H](C)[C@@](O)(O2)C(=O)C(=O)N2CCCC[C@H]2C(=O)O[C@H](C(C)C[C@H]2CC[C@@H](O)[C@H](OC)C2)CC(=O)[C@H](C)/C=C(\C)[C@@H](O)[C@@H](OC)C(=O)[C@H](C)C[C@H](C)/C=C/C=C/C=C/1C (some centres undefined) returned RVFV N-RNA inh 97.
Screening CC1C(O)C(C)C(c2ccccc2)N(C)C1c1ccccc1 (centres undefined) returned RVFV N-RNA inh 92.
`Cc1c(C(=O)NN)sc2nc3n(c(=N)c12)CCC3` gave RVFV N-RNA inh 94.
`CCC(C)(C)C(=O)O[C@H]1C[C@@H](C)C=C2C=C[C@H](C)[C@H](CC[C@@H]3C[C@@H](O)CC(=O)O3)[C@H]21` gave RVFV N-RNA inh 93&98.
O=C(Nc1ccccc1)n1nccc1-c1cc(-c2ccccc2)no1 was read as RVFV N-RNA inh 97.
For COCC(=O)Nc1cccc(C(F)(F)F)c1 the results were RVFV N-RNA inh 90.
For CN(NS(=O)(=O)c1ccc(C(F)(F)F)cc1)c1cnn(C)c(=O)c1Cl the results were RVFV N-RNA inh 100.
For CCOC(=O)C(C#N)=C1SC2CS(=O)(=O)CC2S1 (centres undefined) the results were RVFV N-RNA inh 97.
Screening O=C(O)COc1ccc(/C=N/O)cc1Br returned RVFV N-RNA inh 101.
CN1CCN(C(=O)c2ccc(/C=C3/SC(=S)N(C)C3=O)cc2)CC1 was read as RVFV N-RNA inh 96.
CCCn1c(=O)c(C(N)=O)cn(C2CC2)c1=O was read as RVFV N-RNA inh 98.
Cc1cc(Cl)c(S(=O)(=O)N(C)CC(=O)O)cc1OCC(N)=O was read as RVFV N-RNA inh 93.
Screening CC1CC(=O)N(CC(=O)NCc2ccc3c(c2)OCO3)c2ccccc2S1 (centres undefined) returned RVFV N-RNA inh 100.
Screening N#CSCC(=O)c1ccc(Br)cc1 returned RVFV N-RNA inh 100.
COc1cccc(OC)c1CO was read as RVFV N-RNA inh 99.
`OCc1nnc2n1N=C(c1ccc(Cl)cc1)CS2` gave RVFV N-RNA inh 95.
Screening CC(C)(C)n1ncc2c(=O)n(CC(=O)N3CCCc4ccccc43)cnc21 returned RVFV N-RNA inh 89.
Screening Cn1c(SCCc2ccccc2)nnc1-c1ccc2c(c1)OCO2 returned RVFV N-RNA inh 96.
Screening CCOC(=O)c1nc(C)sc1-c1ccnn1S(=O)(=O)c1ccc(C)cc1 returned RVFV N-RNA inh 98.
